# ALR inh: inhibitors of human ALR sulfhydryl oxidase, primary screen, biochemical, H2O2 detection, HRP-luminol luminescence, single point. FAD-linked sulfhydryl oxidase ALR (Homo sapiens), P55789. purified ALR, DTT oxidation. inhibition, % (concentration not given with the values). actives 3.8% (n = 290,000). AID 485317, 2010;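 active = mean and each replicate at 75% or more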;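 note: stock transfer was 7.5 nL into about 7.5 µL; 0% = neutral wells and 100% = wells with inactivated enzyme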
# LANA-H2A inh: blockers of LANA interaction with H2A/H2B – biochemical, FP readout, HTS, primary screen; actives 0.6% (n = 320,000); inhibition, % (concentration not given with the values); cell-free LANA-H2A/H2B peptide, fluorescence polarization; Protein LANA1 (Human herpesvirus 8 type P (isolate GK18)), Q9QR71; in the data active = inhibition mostly above about 10%, no sharp cut-off; inactive = mostly below about 6.7%;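 note: stock transfer was 7.5 nL into about 10 µL; 0% = median of vehicle wells and 100% = median of positive control wells; one replicate is shown; the record names a cut of 25% in any replicate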
# UCH37 inh: inhibitors of human UCH37 deubiquitinase, primary screen, biochemical, Ub-AMC cleavage, fluorescence; Ubiquitin carboxyl-terminal hydrolase isozyme L5 (Homo sapiens), Q9Y5K5; purified proteasome/UCH37; inhibition, % (concentration not given with the values); actives 0.33% (n = 330,000);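 active = mean of two replicates above 20%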;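 note: 0% = compound-free wells with enzyme and 100% = wells lacking proteasome; stock transfer was 100 nL into about 20 µL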
#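 Material: Human UCH37 enzyme supplied as purified proteasome complex | Schedule: 30 min compound-proteasome preincubation then 25 min substrate reaction, room temperature | Detection: AMC fluorescence from Ub-AMC cleavage, excitation 355 nm, emission 460 nm | Benchmarks: Wells without proteasome as full block, compound-free enzyme plus substrate as uninhibited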
# FGF22 binding: binders of human FGF22 protein, primary screen, FGF22 synaptogenesis inhibitor project, biophysical, thermal shift, single point; recombinant FGF22 thermal shift, SYPRO orange fluorescence; percent of sucrose octasulfate shift, DMSO zero; AID 651658, 2012; actives 1.5% (n = 340,000); calls only at 9.99 µM;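 active = melting point raised past a set limit in the mean and every replicate; three in four hits are not shown here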
# Target sequence (Q9HCT0 whole entry, looked up): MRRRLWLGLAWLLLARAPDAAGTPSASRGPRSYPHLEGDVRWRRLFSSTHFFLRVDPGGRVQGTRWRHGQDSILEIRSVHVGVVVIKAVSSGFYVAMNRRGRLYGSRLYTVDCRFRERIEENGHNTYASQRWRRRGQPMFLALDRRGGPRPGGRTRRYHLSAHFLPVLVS
# B2AR ag: beta2AR agonists driving receptor internalization, primary screen, cell-based, FAP fluorogen, flow cytometry; Am2.2-beta2AR cells; reference of the scale not given here; response, % (concentration not given with the values); actives 0.43% (n = 340,000);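 active = response above a set limit, near 3 SD of response in nonfluorescent compounds, cut at about 42% in these data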;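 note: stock transfer was 100 nL into about 11 µL; a reference agonist was the positive control; negative values mostly stem from fluorescent compounds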
# Target sequence (P07550 whole entry, looked up): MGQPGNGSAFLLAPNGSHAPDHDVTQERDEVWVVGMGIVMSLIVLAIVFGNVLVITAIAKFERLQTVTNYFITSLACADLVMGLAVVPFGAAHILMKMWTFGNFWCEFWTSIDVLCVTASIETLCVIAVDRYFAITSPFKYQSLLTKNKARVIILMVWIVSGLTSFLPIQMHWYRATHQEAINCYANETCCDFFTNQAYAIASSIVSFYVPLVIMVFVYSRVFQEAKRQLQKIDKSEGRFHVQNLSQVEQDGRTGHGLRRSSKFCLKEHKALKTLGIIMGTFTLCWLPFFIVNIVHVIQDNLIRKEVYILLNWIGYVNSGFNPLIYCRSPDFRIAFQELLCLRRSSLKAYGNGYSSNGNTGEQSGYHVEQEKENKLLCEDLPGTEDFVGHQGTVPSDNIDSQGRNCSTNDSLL
# E coli growth: E. coli growth inhibition, primary screen, OD600; actives 0.21% (n = 330,000); AID 1053175, 2014; Escherichia coli growth, 23 h; hits give low values; OD600 absorbance (test concentration not listed);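 active = OD600 absorbance below the run mean of sample wells minus 3.6 SD, in any replicate, cut at about 0.56 in these data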;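 note: stock transfer was 300 nL into about 60 µL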
# HNF4A DNA FP: change in binding of human HNF4A to DNA, primary screen, biochemical, fluorescence polarization, FITC-DNA | 1 h | activity change, % at 10 µM | Hepatocyte nuclear factor 4-alpha (Homo sapiens), P41235 | actives 0.3% (n = 360,000) | AID 1224865, 2016; in the data active = activity change above about 30%, passing the limit was not always enough;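 note: controls were the assay level and a saturating level of protein; the project sought stronger binding though the title names inhibitors; some compounds called inactive have numbers as strong as hits; positive values seem to mean higher polarization but the record does not say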
# Target sequence (P41235 whole entry, looked up): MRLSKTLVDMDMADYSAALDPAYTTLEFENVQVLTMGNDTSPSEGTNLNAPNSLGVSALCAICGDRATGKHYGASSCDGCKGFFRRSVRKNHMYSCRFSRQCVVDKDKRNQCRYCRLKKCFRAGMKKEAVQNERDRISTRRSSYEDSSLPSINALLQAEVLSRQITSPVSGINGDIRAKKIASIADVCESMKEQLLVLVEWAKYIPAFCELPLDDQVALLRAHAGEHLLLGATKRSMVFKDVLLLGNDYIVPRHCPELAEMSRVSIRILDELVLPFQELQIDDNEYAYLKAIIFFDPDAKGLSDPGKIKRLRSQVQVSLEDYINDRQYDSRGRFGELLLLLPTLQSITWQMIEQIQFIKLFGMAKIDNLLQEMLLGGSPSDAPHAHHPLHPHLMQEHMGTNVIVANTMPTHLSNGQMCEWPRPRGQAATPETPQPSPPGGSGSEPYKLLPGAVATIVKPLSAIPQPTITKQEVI
# Active calls of the source: *; i = inactive; · = no result given. Some of the compounds tested; count on the stated rates, not on these rows.
SMILES,ALR inh,LANA-H2A inh,UCH37 inh,FGF22 binding,B2AR ag,E coli growth,HNF4A DNA FP
CC1CCCCN1C(=O)Nc1ccccc1Cl (centres undefined),·,1.8,-0.3,i,-8,0.7,-1.4
C=C(C)COc1ccc(-c2ncncc2-c2ccc(Br)cc2)c(O)c1,-38,0.6,2.4,i,5,0.61,2.5
c1ccc(-c2nnc(C3CC(c4ccncc4)=NO3)o2)cc1 (centres undefined),·,3.1,0.7,i,-2,0.69,1.9
O=C(NCc1cccs1)C1CCN(c2nccs2)CC1,-7,0.0,3.9,·,1,0.72,-1.8
CC(=O)Nc1ccc(Sc2ccccc2C(=O)O)cn1,·,1.1,-0.8,i,1,0.65,-3.0
S=c1[nH]nc(-c2ccccc2)n1/N=C/c1cccs1,24,2.8,·,·,12,·,-2.2
CCOC(=O)/C(N)=C/c1ncc(C(F)(F)F)cc1Cl,6,-3.2,5.9,·,1,0.78,0.2
Cc1cc(C)cc(NC(=O)N2CCC(NC(=O)c3ccc(F)cc3)CC2)c1,-13,0.8,0.8,·,4,0.68,1.2
CCOC(=O)C(NC(=O)CC)(Nc1ccc(S(N)(=O)=O)cc1)C(F)(F)F (centres undefined),0,1.6,-1.5,i,-6,0.71,0.4
COc1cc(NC(=O)CN2C(=O)c3ccccc3S2(=O)=O)c(OC)cc1Cl,-3,0.6,0.8,·,4,0.68,-1.6
Cc1cc(C(=O)O)cc(S(=O)(=O)Nc2ccccc2C(=O)NC(C)c2ccccc2)c1C (centres undefined),-1,4.1,3.1,i,2,0.73,1.7
COc1ccc(NCC(=O)N2CCCC2)cc1Cl,6,-3.7,4.7,i,-2,0.68,0.7
Cc1cs/c(=N\N=C\c2cccc([N+](=O)[O-])c2)n1Cc1ccco1,0,4.0,·,i,4,·,-0.4
COc1ccc(CN2CCC(CO)(CCOc3ccccc3)CC2)cc1C,-1,2.2,-0.2,i,-6,0.7,-3.4
Cc1[nH]c(=O)[nH]c(=O)c1S(=O)(=O)N1CCC(C(=O)N2CCN(Cc3ccccc3)CC2)CC1,0,-4.0,1.5,·,4,0.75,1.2
CC(C)c1ccc(C2c3[nH]c4ccccc4c3C[C@H]3C(=O)N(c4ccccc4C(=O)N4CCC[C@@H]4C(=O)O)C(=O)N23)cc1 (some centres undefined),98*,-9.4,2.8,i,3,0.78,-1.9
N#Cc1ccc(S(=O)(=O)N2CCc3[nH]c4ccc(F)cc4c3C2)cc1,-3,-1.7,0.7,i,13,0.69,-3.0
Cc1csc(NC(=O)CN2CCCCCC2)n1,-6,7.6,2.0,i,2,0.68,-1.2
Cn1c(=O)n(CC(=O)O)c(=O)c2c1nc1n2CCCN1Cc1ccccc1,1,-2.1,3.6,i,-4,0.73,-3.0
O=C1NC2(CCCCCC2)C(=O)N1CCS(=O)(=O)Oc1ccccc1,-3,1.2,4.9,i,7,0.7,0.8
Cc1sc2ncnc(SCC#N)c2c1C,-1,4.6,5.1,·,6,0.7,4.3
CCOC(=O)N1CCN(C(=O)CSCc2nc(-c3ccccc3F)oc2C)CC1,100*,5.6,0.1,·,4,0.68,-2.4
COc1ccc(Oc2cc(F)nc(N)n2)cc1,-5,2.9,0.7,i,3,0.71,1.2
COc1ccccc1/C=N/NC(=O)c1nnn(-c2nonc2N)c1CN(C)c1ccccc1,-4,-7.4,·,i,7,·,-0.2
O=CN1CCN(S(=O)(=O)c2ccc(S(=O)(=O)NC3CCCCC3)cc2)CC1,-4,-2.9,0.8,i,-8,0.61,-1.1
COc1ccc(C2CC23N=C(c2ccccc2)OC3=O)cc1 (centres undefined),97*,3.8,0.5,i,30,0.71,-0.4
CC(C)c1cc(C(=O)NCc2ccco2)no1,·,4.9,2.2,i,2,0.71,-0.3
COc1ccc(/C=N/NC(=O)Cn2ccnc2C)cc1OC,-3,-0.7,·,i,-2,·,0.5
COc1ccccc1C(=O)NCC(=O)n1nc(C)cc1C,-5,-0.6,4.8,·,-12,0.74,1.0
Cc1cc(C=C2C(=O)c3ccccc3C2=O)c(C)n1-c1cccc(C(=O)O)c1,20,-1.3,8.3,i,-2,0.69,1.5
CCCOc1ccc2ccccc2c1/C=N/n1cnnc1,-28,-1.3,·,·,-2,·,-0.1
CCc1ccc(C(=O)COC(=O)c2ccc(-c3nnc(-c4ccccc4)o3)cc2)cc1,-3,0.1,0.8,·,0,0.73,-3.7
CC(C)=CCC(C)(C)C1OCCN1C(=O)Nc1ccccc1 (centres undefined),-12,3.2,-0.2,·,3,0.66,-2.1
COC(=O)c1ccc(Cn2nc(C)cc2C)cc1,-3,5.6,-0.9,·,0,0.75,0.9
COc1ccccc1N1CCN(C(=O)CCCNC(=O)Cn2cnc3sc(C)c(C)c3c2=O)CC1,10,-5.0,-1.3,i,-1,0.65,3.7
Cc1cccc(OCC(=O)Oc2ccc(Cl)cc2)c1,11,-0.6,0.6,i,0,0.71,6.6
FC(F)(F)c1cccc(CN2CCCCCC2)c1,-6,2.6,0.5,·,1,0.67,3.3
CN(C)S(=O)(=O)c1ccc(NC(=O)C2CC(=O)N(Cc3ccccc3Cl)C2)cc1 (centres undefined),-8,-2.6,3.4,i,-1,0.69,0.8
O=C(/C=C/c1ccccn1)c1ccc(Br)cc1O,·,1.0,-0.7,i,-3,0.7,-1.2
COc1ccccc1C(=O)NCC(=O)N/N=C/c1cccc(Cl)c1,-13,2.0,·,i,-3,·,-2.8
Cn1c(=O)c(C(=O)c2ccc(S(C)(=O)=O)c(Cl)c2Cl)c(O)c2ccccc21,0,-2.5,7.2,i,-9,0.71,-0.1
Cc1ccc(-c2nc(CS(=O)(=O)CC(=O)N3CCc4ccccc4C3)c(C)o2)cc1,10,-1.2,5.1,i,-1,0.76,1.1
CCOC(=O)c1ccc(N2C(=O)CC(C3CCCO3)C2=O)cc1 (centres undefined),-17,-0.9,15,·,3,0.65,-2.0
CS(=O)(=O)N(CC(=O)Nc1cccc(F)c1)Cc1ccccc1,-11,0.9,-0.2,i,8,0.67,2.2
CCCCCCN(C(=O)CCCCCN1C(=O)NC(c2ccc(-c3ccccc3)cc2)C(C(=O)OCc2ccccc2)=C1C)C(C(=O)NCCCC)c1ccccc1 (centres undefined),·,·,1.4,i,·,0.71,·
O=C(NCC1CCN(Cc2ccccc2F)CC1)Nc1cccc(Br)c1,0,2.4,4.9,i,-9,0.67,2.4
CCC[C@@H]1C[C@@H](C(=O)N[C@H]([C@@H](C)O)[C@H]2O[C@H](SC)[C@H](O)[C@@H](O)C2O)N(C)C1 (some centres undefined),·,18,·,i,11,·,-1.6
COc1cc(-c2nnc(COC(=O)c3ccc(C)o3)o2)cc(OC)c1OC,-3,2.3,0.6,i,14,0.66,-6.0
CCOC(=O)c1ccc(NC(=O)CN2C(=O)NC3(CCCCCCC3)C2=O)cc1,16,0.4,4.3,i,2,0.69,0.9
NNC(=O)c1ccc(COc2cccc3ccccc23)o1,-37,0.2,3.8,i,8,0.66,-3.4
COc1ccc(Br)cc1Cn1nnc(C(=O)Nc2ccc3c(c2)OCCO3)c1N,16,·,5.7,i,-3,0.71,-3.2
O=C(CCCn1c(=S)[nH]c2ccc(Br)cc2c1=O)NCC1CCCO1 (centres undefined),-1,-2.7,5.2,·,-16,0.68,-2.2
O=C(COC(=O)/C=C/c1cccc(Cl)c1)NC(=O)NCc1ccccc1,0,4.0,1.7,i,-1,0.72,-4.2
Cc1cccc(C2=NN(c3ccccc3)[C@H](CO)[C@H]2c2ccccc2)c1,·,·,i,·,-1,0.72,7.2
COc1ccc(S(=O)(=O)NCc2ccccn2)cc1NC(=O)c1ccccc1F,-1,4.3,-13,i,-3,0.67,1.9
Cc1ccccc1Nc1nnc(C)c(=O)n1N,1,3.9,1.5,i,10,0.67,-3.4
O=C(N/N=C/C(Cl)=C/c1ccccc1)c1ccco1,-9,-2.1,·,i,-6,·,-6.0
COC(=O)CNc1nc(-c2ccncc2)nc2ccccc12,-3,0.4,-0.8,·,1,0.72,-0.8
O=C(CN(CC1CCCO1)C(=O)CNS(=O)(=O)c1ccccc1)NCCc1ccccc1 (centres undefined),2,-1.4,-0.6,i,0,0.65,-0.8
O=C(Oc1ccccc1O)c1cccc2ccccc12,66,-6.0,·,i,·,·,-2.4

# Some of the entries above in a different format:
# Fields: ALR inh | LANA-H2A inh | UCH37 inh | FGF22 binding | B2AR ag | E coli growth | HNF4A DNA FP
O=C(Oc1ccccc1O)c1cccc2ccccc12
  66 | -6.0 | · | i | · | · | -2.4
Cc1cccc(C2=NN(c3ccccc3)[C@H](CO)[C@H]2c2ccccc2)c1
  · | · | i | · | -1 | 0.72 | 7.2
O=C(N/N=C/C(Cl)=C/c1ccccc1)c1ccco1
  -9 | -2.1 | · | i | -6 | · | -6.0
O=C(COC(=O)/C=C/c1cccc(Cl)c1)NC(=O)NCc1ccccc1
  0 | 4.0 | 1.7 | i | -1 | 0.72 | -4.2
O=C(CN(CC1CCCO1)C(=O)CNS(=O)(=O)c1ccccc1)NCCc1ccccc1 (centres undefined)
  2 | -1.4 | -0.6 | i | 0 | 0.65 | -0.8

# (continued)
SMILES,ALR inh,LANA-H2A inh,UCH37 inh,FGF22 binding,B2AR ag,E coli growth,HNF4A DNA FP
CCOC(=O)CC1(NC(=O)C2CCC(=O)N(Cc3ccccc3OC)C2)CCCCC1 (centres undefined),-2,-0.7,3.2,i,2,0.73,-2.3
O=C(Nc1ccccc1)Nc1cc(S(=O)(=O)N2CCOCC2)ccc1N1CCCC1,-23,-2.3,4.0,·,6,0.69,0.6
CCN(CC)S(=O)(=O)c1ccc(NC2c3ccccc3C(=O)N2c2ccc(C)cn2)cc1 (centres undefined),-33,-4.7,3.3,i,-7,0.79,2.0
C=CCn1c(COc2ccccc2F)nnc1SCC(=O)c1c[nH]c2ccccc12,-8,-3.3,2.1,i,1,0.68,4.6
O=S(=O)(c1ccc2c(c1)OCCO2)N1CCN(c2nc3ccccc3s2)CC1,-4,5.2,2.3,i,-2,0.7,5.7
O=C(NNC(=O)c1cccs1)c1ccncc1,7,7.7,3.9,i,1,0.69,2.2
Cc1ccc(S(=O)(=O)Cn2nnnc2C(CC(C)C)N2CCN(c3ccc(F)cc3)CC2)cc1 (centres undefined),-1,2.0,0.2,·,-10,0.79,-0.9
CN1CCN(C(=O)c2cc(COc3ccc(F)cc3Cl)on2)CC1c1ccccc1 (centres undefined),-36,-0.1,4.4,i,1,0.7,4.3
CCc1ccc(NC(=O)CCCNC(=O)Cn2cnc3sc(C)c(C)c3c2=O)cc1,0,7.2,4.4,i,-7,0.62,1.3
CC#CCN1c2ccccc2[C@]23C[C@@H](C(=O)OC)N(C(=O)C4CCC4)C2=NC(C(=O)OC)=C(C(=O)OC)[C@H]13,-5,1.7,0.0,i,4,·,8.9
O=C1/C(=C2/NCCN2C2CC(=O)N(c3ccccc3)C2=O)CC/C1=C\c1ccccc1 (centres undefined),-1,0.2,1.1,i,-1,0.7,-4.1
Cc1ccccc1C(=O)NNC(=O)C12CC3CC(CC(C3)C1)C2,-3,0.8,7.5,i,0,0.72,-2.1
Cn1ccc(NC(=O)Nc2cccc([N+](=O)[O-])c2)n1,2,7.6,0.3,i,9,0.65,-0.5
NC1=NOC(=O)C1C1CCCCC1 (centres undefined),·,·,1.1,i,-1,0.7,2.1
COCCNC(=O)c1c[nH]c2ccc(S(=O)(=O)N(C)c3ccc(C)c(C)c3)cc2c1=O,-16,-2.9,0.3,i,18,0.69,6.0
